Screens (PubChem BioAssay)
Arbovirus inh – arbovirus infection inhibition; arbovirus infection cell-based antiviral screen; inhibition, % at 10 µM; actives 0.37% (n = 200,000); AID 1251;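 active = inhibition from about 30%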;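 note: bluetongue infection of BSR cells; cell survival read as ATP light after 72 h; 0% = infected wells without compound and 100% = uninfected wells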
Mtb growth – M. tuberculosis H37Rv growth inhibitors, H37Rv strain (AID 1626). M. tuberculosis H37Rv growth inhibition; higher % means a stronger effect. inhibition, % at 10 µM, or IC50 in µM where a hit was titrated. actives 0.95% (n = 220,000);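 active = confirmed in a dose series; inconclusive = inhibition above 80% but not taken into the dose series; inactive = below 80% or under 30% at every dose of the series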;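 note: bacteria incubated seven days before Alamar blue readout; 0% = bacteria only wells and 100% = bacteria with antibiotic wells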
Mtb betalactam – beta-lactam sensitization of Mtb H37Rv; M. tuberculosis H37Rv growth with meropenem, percent inhibition; hits of this screen are not shown here; inhibition, % at 25 µM; actives 0.27% (n = 330,000); AID 434955;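 active = about 74% or more and at least 40 points above the plate without the antibiotic, then above 30% in a dose series; inconclusive = first-round hits that could not be retested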;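 note: growth measured after seven days incubation then overnight dye step; 0% = bacteria only wells and 100% = bacteria with antibiotic; twin plates without the antibiotic show which effects depend on it; some results filed as inactive read as strong as hits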
RecA intein inh – Mtb RecA intein splicing inhibition; P9WHJ3; inhibition, %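 (about 9 µM by stock and volumes)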; cell-free RecA intein splicing, fluorescence; actives 0.75% (n = 290,000); in the data active = inhibition above about 30%; inconclusive = no clear call, values can overlap the other calls;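 note: 0% = vehicle wells and 100% = reference inhibitor control wells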
Target sequence (P9WHJ3 whole entry, looked up): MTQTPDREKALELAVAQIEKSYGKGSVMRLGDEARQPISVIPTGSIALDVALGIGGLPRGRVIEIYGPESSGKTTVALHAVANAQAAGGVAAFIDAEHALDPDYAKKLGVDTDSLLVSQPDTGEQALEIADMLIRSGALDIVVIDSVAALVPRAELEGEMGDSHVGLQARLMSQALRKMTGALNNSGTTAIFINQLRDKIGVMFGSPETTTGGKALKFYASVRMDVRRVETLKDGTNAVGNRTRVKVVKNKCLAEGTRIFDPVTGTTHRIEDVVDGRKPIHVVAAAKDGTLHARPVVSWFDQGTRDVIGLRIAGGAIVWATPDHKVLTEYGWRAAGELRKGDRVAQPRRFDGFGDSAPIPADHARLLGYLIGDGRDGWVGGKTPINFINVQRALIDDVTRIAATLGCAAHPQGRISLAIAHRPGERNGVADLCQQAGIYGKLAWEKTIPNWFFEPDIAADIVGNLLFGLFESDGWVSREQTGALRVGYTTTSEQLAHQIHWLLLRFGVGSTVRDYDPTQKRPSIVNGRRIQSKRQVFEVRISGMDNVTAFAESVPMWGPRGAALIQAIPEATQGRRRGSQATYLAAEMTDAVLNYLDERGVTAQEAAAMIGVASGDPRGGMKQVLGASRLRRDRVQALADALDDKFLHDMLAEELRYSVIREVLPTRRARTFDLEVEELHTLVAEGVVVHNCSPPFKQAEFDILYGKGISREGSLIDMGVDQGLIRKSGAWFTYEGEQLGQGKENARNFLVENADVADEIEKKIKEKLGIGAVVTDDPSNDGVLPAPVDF
YopH inh – blocks Yersinia enterocolitica YopH tyrosine phosphatase | inhibition, %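 (about 10 µM by stock and volumes)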 | AID 898 | actives 0.16% (n = 140,000) | fluorescence Ex485/Em525;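 active = inhibition of 50% or more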;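 note: controls were vehicle for no effect and minimum signal wells for full effect; inactives centre near -20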
Arbovirus inh repeat – second read-out of Arbovirus inh, no call of its own (marks repeat the call); inhibition, %; measured here: 10K subset replicate screen; many hits read low in the repeat;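 first of two repeat runs on a subset; 0% = infected and 100% = uninfected wells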
* marks the source's active call; other numbers are inactive results; ? = inconclusive; nt = no result given.

SMILES	Arbovirus inh	Mtb growth	Mtb betalactam	RecA intein inh	YopH inh	others
COc1ccc(C2SCC(C(=O)O)N2C(C)=O)cc1OC (centres undefined)	10	7%	4	-2.2	-45	Arbovirus inh repeat=4
CCCc1cc(=O)oc2c(C)c(OCC(=O)NC3CCN(Cc4ccccc4)CC3)ccc12	nt	nt	-2	-0.5	nt
CCOc1ccc(/C=C2\SC(=S)N(CCC(=O)O)C2=O)cc1	nt	-6%	1	3.4	nt
Cc1cccn2c(=O)c(/C=C3\SC(=S)NC3=O)c(NCCCN3CCOCC3)nc12	nt	-2%	2	-0.7	nt
Cc1ccccc1OCCn1c(S(=O)(=O)O)nc2c(N)ncnc21	nt	nt	0	-1.6	nt
CC(=O)Oc1ccc(C(=O)Nc2ccc3c(c2)C(=O)N(CCC(=O)O)C3=O)cc1	-2	-12%	-10	-0.6	6
CC(C)C(OC(=O)c1ccccc1)c1nccc2ccccc12 (centres undefined)	nt	2%	-2	8.4	nt
Cc1cccn2c(=O)c3cc(C#N)c(=N)n(Cc4ccncc4)c3nc12	-1	nt	-6	-10	-34
CN(c1ccccc1)S(=O)(=O)c1cccc(C(=O)Nc2nccs2)c1	-2	-5%	4	2.7	nt
Cc1cccc(NC(NC(=O)c2ccccn2)C(Cl)(Cl)Cl)c1 (centres undefined)	-1	-6%	3	3.7	-10
Cc1ccc(N=C2C(=O)Nc3ccccc32)cc1C	nt	nt	13	4.2	nt
Cc1ccc(S(=O)(=O)NC(=O)COc2ccccc2C)cc1	-3	-14%	-8	nt	-33
Cc1ccc(C(=O)N2CCN(Cc3ccc4c(c3)OCO4)CC2)cc1C	nt	nt	-3	5.3	nt
CCOC(=O)c1c(C(=O)OCC)c(C)n(Cc2cc(OC)c(OC)c(OC)c2)c1C	3	2%	4	0.4	-30
COc1ccc(/C=N/NC(=O)c2nc(-c3ccccc3)cc(-c3ccccc3)n2)cc1	0	2%	56	1.8	-8

4 entries drawn at random from the list so far, as already listed:
SMILES	Arbovirus inh	Mtb growth	Mtb betalactam	RecA intein inh	YopH inh	others
Cc1cccn2c(=O)c3cc(C#N)c(=N)n(Cc4ccncc4)c3nc12	-1	nt	-6	-10	-34
Cc1ccccc1OCCn1c(S(=O)(=O)O)nc2c(N)ncnc21	nt	nt	0	-1.6	nt
Cc1ccc(C(=O)N2CCN(Cc3ccc4c(c3)OCO4)CC2)cc1C	nt	nt	-3	5.3	nt
CCOc1ccc(/C=C2\SC(=S)N(CCC(=O)O)C2=O)cc1	nt	-6%	1	3.4	nt

The results go on.
SMILES	Arbovirus inh	Mtb growth	Mtb betalactam	RecA intein inh	YopH inh	others
COc1ccc(C(=O)N/C(=C\c2ccc3c(c2)OCO3)C(=O)N2CCOCC2)cc1	nt	nt	-13	0.3	nt
CCN(CC)c1ccc(/C=N/NC(=O)CNC(=O)c2cccs2)cc1	nt	nt	10	-1.4	nt
CCS(=O)(=O)N1CCN=C1SCc1cccc(F)c1	nt	nt	4	-2.3	nt
CC[N+](C)(C)CCN(Cc1ccc(Cl)cc1)c1ccccn1	2	-15%	0	5.1	-15
COc1cc2[nH]c3c(Cl)ncnc3c2cc1OC	0	-4%	-4	1.3	-27
CCOc1ccc(CNC(=O)Cn2ccc3cc(S(=O)(=O)N4CCCC4)ccc32)cc1	nt	nt	13	-0.5	nt
CCOc1ccc(NC(=O)Cn2c(=O)n(CC3CCCO3)c(=O)c3ccccc32)cc1 (centres undefined)	2	0%	-1	0.9	nt
Cc1ccc(S(=O)(=O)N2CCOCC2)cc1NC(=O)CNC1CCCC1	nt	-3%	-5	-0.2	nt
NS(=O)(=O)c1ccc(CCNC(=O)c2ccc(C#CC3(O)CCCCC3)cc2)cc1	5	-4%	1	5.2	nt
C=C(C)CN1CCN(c2c(CCC#N)c(C)c(C#N)c3nc4ccccc4n23)CC1	-8	-6%	2	-65	-39
CN(C)c1ccc(N2C(=O)CC(Nc3ccc(N4CCOCC4)cc3)C2=O)cc1 (centres undefined)	-1	-5%	-2	-1.5	-7
COC(=O)COc1ccc(C(C2C(=O)CC(C)(C)CC2=O)C2C(=O)CC(C)(C)CC2=O)cc1	nt	nt	6	0.3	nt
O=C(CC1Sc2ccccc2NC1=O)NCc1cccc(Cl)c1 (centres undefined)	-9	7%	5	0.1	nt
O=C(O)CC1S/C(=N/N=C/c2ccccn2)NC1=O (centres undefined)	nt	3%	-5	-2.0	nt
Cc1cc(C)nc(NS(=O)(=O)c2ccc(N=NN(C)C)cc2)n1	nt	nt	-8	-2.2	nt
CC(=O)OCC1=C(C(=O)O)N2C(=O)C(NC(=O)C(C)Cn3cc(Cl)cn3)C2SC1 (centres undefined)	3	-3%	5	-2.0	nt
Cc1ccccc1OCC(=O)NCCCNC(=O)c1ccccn1	nt	nt	-4	0.4	nt
O=C(C(=O)N1CCN(c2ccc(F)cc2)CC1)N1CCCCC1	-1	8%	-3	-3.9	nt
COc1ccccc1NCc1nnc(SCC(=O)N/N=C/c2ccco2)n1-c1ccc(Cl)cc1Cl	-3	-3%	1	5.3	-26
O=C(N/N=C1/CCS(=O)(=O)c2ccc(F)cc21)c1cccnc1	17	2%	3	-1.6	nt
COCCn1c(-c2ccc(OC(F)(F)C(F)C(F)(F)F)cc2)nc2c1c(=O)[nH]c(=O)n2CC(C)C (centres undefined)	-9	?	98	nt	-11
O=C(Nc1ccc(F)cc1)Nc1ccccc1NS(=O)(=O)c1cccs1	23	-3%	5	4.5	-38
Cc1nn(CC(=O)NCCc2ccccc2)c(C)c1[N+](=O)[O-]	-1	-8%	0	-6.4	-43
Cc1cc(C)c(NC(=O)CNC(=O)c2ccc(-n3cncn3)c([N+](=O)[O-])c2)c(C)c1	nt	nt	-12	-1.5	nt
NC(=O)CC(NC(=O)Cc1cccc2ccccc12)c1ccc(NCc2ccc(F)c(F)c2)c([N+](=O)[O-])c1 (centres undefined)	nt	-10%	7	3.8	nt
COC(=O)[C@@]12CCCN1[C@H](c1ccc(-c3ccc(F)cc3)cc1)[C@H]1C(=O)N(C)C(=O)[C@H]12	nt	nt	-6	3.1	nt
Cc1ccccc1NC(=S)NCCO	13	5%	-6	0.9	nt
O=C(Nc1csnn1)c1csnn1	nt	1%	-6	1.0	nt
CC(C1CC1)N(Cc1ccccc1)C(=S)Nc1ccccc1 (centres undefined)	15	-8%	-3	3.1	nt
NC(=O)CC(NC(=O)Cc1cccc2ccccc12)c1ccc(N2CCc3ccccc3C2)c([N+](=O)[O-])c1 (centres undefined)	nt	2%	46	-1.4	nt

Arranged by SMILES length (ascending): part of the list above
SMILES	Arbovirus inh	Mtb growth	Mtb betalactam	RecA intein inh	YopH inh	others
Cc1ccccc1NC(=S)NCCO	13	5%	-6	0.9	nt
CC(C1CC1)N(Cc1ccccc1)C(=S)Nc1ccccc1 (centres undefined)	15	-8%	-3	3.1	nt
O=C(N/N=C1/CCS(=O)(=O)c2ccc(F)cc21)c1cccnc1	17	2%	3	-1.6	nt
COc1ccccc1NCc1nnc(SCC(=O)N/N=C/c2ccco2)n1-c1ccc(Cl)cc1Cl	-3	-3%	1	5.3	-26
NC(=O)CC(NC(=O)Cc1cccc2ccccc12)c1ccc(N2CCc3ccccc3C2)c([N+](=O)[O-])c1 (centres undefined)	nt	2%	46	-1.4	nt

Next section
SMILES	Arbovirus inh	Mtb growth	Mtb betalactam	RecA intein inh	YopH inh	others
COc1ccccc1CN1C(=O)C2CC=CCC2C1=O (centres undefined)	4	2%	-5	-0.5	-42
Cc1ccc(S(=O)(=O)NCCC(=O)Nc2nnc(C3CC3)s2)cc1C	-4	3%	4	0.9	-8
CCSc1nnc2ccc(-c3ccc(OC)c(OC)c3)nn12	nt	nt	-1	-1.6	nt
Cc1ccc(SCC(=O)Nc2ccc3c(c2)C(=O)N(C)C3=O)cc1	nt	nt	-6	-1.9	nt
CC(OC(=O)/C=C/c1ccco1)C(=O)Nc1cccc([N+](=O)[O-])c1 (centres undefined)	3	3%	-4	-0.4	-20
Cc1cc(C(=O)OCC(=O)c2ccc3c(c2)OCCO3)c(C)o1	2	-5%	2	3.4	-30
COc1ccc2c(CC(=O)OCC(=O)Nc3sc4c(c3C#N)CCC(C)C4)coc2c1 (centres undefined)	-12	9%	6	-2.2	-30
COc1ccc(NC(=O)c2ccc(S(=O)(=O)N(C)C)cc2)cc1OC	10	-4%	1	-1.5	-8
CCCNC(=O)COC(=O)c1ccc(Cl)c(S(=O)(=O)N2CCCC2)c1	6	-6%	-7	-1.1	-35
Cc1ccc(C(=O)Nc2ccccc2OC(F)F)cc1	-3	8%	0	-1.1	-39
COc1ccc(Cl)cc1NC(=O)C1CC(c2c(F)cccc2Cl)=NO1 (centres undefined)	nt	nt	4	13	nt
Cc1ccc(C)n1-c1cccc(C(=O)Nc2ccccc2)c1	nt	3%	-8	3.3	nt
CC1CCCCC1NC(=O)CN1CCC(NC(=O)c2ccc([N+](=O)[O-])cc2)CC1 (centres undefined)	nt	nt	0	0.3	nt
O=C(CN1CCCCC1)N/N=C/c1cccc(C(F)(F)F)c1	nt	nt	-8	-2.3	nt
COc1cccc(CC2(CO)CCCN(Cc3nc(-c4cccs4)oc3C)C2)c1 (centres undefined)	4	-4%	6	1.3	nt

Four successive entries already listed, quoted:
SMILES	Arbovirus inh	Mtb growth	Mtb betalactam	RecA intein inh	YopH inh	others
COc1ccc(C2SCC(C(=O)O)N2C(C)=O)cc1OC (centres undefined)	10	7%	4	-2.2	-45	Arbovirus inh repeat=4
CCCc1cc(=O)oc2c(C)c(OCC(=O)NC3CCN(Cc4ccccc4)CC3)ccc12	nt	nt	-2	-0.5	nt
CCOc1ccc(/C=C2\SC(=S)N(CCC(=O)O)C2=O)cc1	nt	-6%	1	3.4	nt
Cc1cccn2c(=O)c(/C=C3\SC(=S)NC3=O)c(NCCCN3CCOCC3)nc12	nt	-2%	2	-0.7	nt

The list continues:
SMILES	Arbovirus inh	Mtb growth	Mtb betalactam	RecA intein inh	YopH inh	others
CCN(CC(=O)Nc1ccccc1C(F)(F)F)C(=O)c1ccc2[nH]c3c(c2c1)CC(C)CC3 (centres undefined)	nt	nt	-1	-4.1	nt
C=CCSc1nn2c(=O)c3ccccc3nc2s1	8	3%	74	-1.1	-34
O=C(c1cccc2nccnc12)N1CCCC(Nc2ccc(F)c(F)c2)C1 (centres undefined)	nt	nt	0	1.1	nt
COc1ccc(Cn2c(CCC(=O)Nc3ccc(CC#N)cc3)nc3cccnc32)cc1	-1	2%	nt	-1.3	-45
COc1ccc(C(=O)NC(=S)Nc2ccc3[nH]c(=O)[nH]c3c2)c(OC)c1	nt	nt	0	-3.5	nt
COc1nc(OC)nc(N2CCC(C(=O)NC3CC3)CC2)n1	1	-6%	-1	-1.4	nt
COc1ccc(-n2c(Cn3c(=O)sc4ccccc43)nnc2SCC(=O)N2CCCCC2)cc1	-2	-6%	-6	nt	-21	Arbovirus inh repeat=1
CCOC(=O)c1sc(NC(=O)c2cc3c(s2)CCC(C)C3)nc1C (centres undefined)	6	0%	-4	-0.8	-12
O=C(/C=C\Nc1ccc2c(c1)OCO2)c1ccc2c(c1)OCO2	-34	82%	-8	-6.6	nt
COc1ccc2c(c1)c(C(=O)N/N=C/c1cccs1)c(C)n2C	nt	nt	1	0.1	nt
c1cn(-c2ncnc3sc4c(c23)CCCC4)cn1	21	-4%	-3	1.3	-46
O=C(O)c1ccc(-n2c(-c3ccc(Br)cc3)n[nH]c2=S)cc1	-4	-9%	-11	-2.6	-45
COc1ccc(NC(=S)Nc2ccc(S(N)(=O)=O)cc2)c(C)c1	1	-1%	0	3.2	nt
Cc1cccc(CSCc2ccc(C(=O)NCC3CCCO3)o2)c1 (centres undefined)	0	-11%	22	4.7	nt
CC(=O)NC(=S)NNC(=O)COc1ccc([N+](=O)[O-])cc1	20	2%	-5	-5.4	nt
O=C1CC(NNc2nc3ccccc3s2)C(=O)N1c1ccccc1 (centres undefined)	10	-2%	1	nt	-28
NC(=O)CC[C@@H]1NC(=O)[C@H](CO)NC(=O)c2cc([N+](=O)[O-])cc(I)c2OCC[C@@H](C(N)=O)NC1=O	4	-10%	-14	0.6	-34
COc1ccc(-c2csc(N3CCN(c4cc(C)nc5ccccc45)CC3)n2)cc1OC	-27	?	98	9.4	nt
C=CCN1C(=O)C(CC(=O)Nc2ccc(C)cc2)SC1=Nc1c(C)n(C)n(-c2ccccc2)c1=O (centres undefined)	7	-3%	8	1.6	-14
COc1ccc(OC)c(CN2CCSCC2)c1	nt	nt	-7	-1.1	nt
CCc1nnc(NS(=O)(=O)c2ccc(NC(=O)c3cccc(Br)c3)cc2)s1	nt	nt	-7	7.6	nt
COC(=O)c1sccc1NC(=O)c1cnc2cc(C)nn2c1C	4	1%	1	0.8	nt
CC(=O)NCCc1c[nH]c2ccc(O)cc12	nt	-9%	-12	-6.4	nt
Cc1cc(C)n(CCOC(=O)C2C(C=C(Cl)Cl)C2(C)C)n1 (centres undefined)	12	5%	7	5.6	-20

This is a subset; count on the stated rates, not on these rows.
